Sfp inh: Sfp phosphopantetheinyl transferase inhibition; Q9F4F7; 310,000 compounds, 3.5% hits; Potency, µM, without a hit: max response, negative = inhibition, usual class: inhibitors; AID 1490; Biochemical Sfp PPTase activity, qHTS; active = well fitted inhibition curve with a large enough effect; inconclusive = small, poorly fitted or top-dose-only effect, or another doubt; inactive = no such curve, though single readings can be large or run the other way;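 note: the enzyme is Sfp with the accession as filed and its product quenches rhodamine fluorescence; potency is the fitted concentration of half-maximal effect; 0% = enzyme reaction without inhibitor and -100% = no enzyme wells; top concentration of the series not given in the record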
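Reaction rates are the 30-min fluorescence difference (ex 525, em 598 nm) in wells containing 15 nM Sfp, 5 uM rhodamine-CoA and 12.5 uM BHQ-2-YbbR at pH 7.6 with 10 mM MgCl2.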
ClpP mod: qHTS Assay for Activators of ClpP. ATP-dependent Clp protease proteolytic subunit (Bacillus subtilis (strain 168)), P80244. purified B. subtilis ClpP, FRET peptide cleavage, 20 min. Potency, µM (titrated, usually from 57.5 µM), for the others: at the highest dose activity change, negative = active. 340,000 compounds, 1.9% hits. AID 651965, 2013; active = well fitted falling curve with a large enough effect; inconclusive = small, poorly fitted or top-dose-only effect; inactive = no such curve, though single readings can be large or run the other way; note: potency is the fitted concentration of half-maximal effect; the source files actives as falling curves though it sought activators and does not explain the sign; nearly all actives have a fitted effect of over 65% in size; many hits overshoot -100%
Target sequence (P80244 whole entry, looked up): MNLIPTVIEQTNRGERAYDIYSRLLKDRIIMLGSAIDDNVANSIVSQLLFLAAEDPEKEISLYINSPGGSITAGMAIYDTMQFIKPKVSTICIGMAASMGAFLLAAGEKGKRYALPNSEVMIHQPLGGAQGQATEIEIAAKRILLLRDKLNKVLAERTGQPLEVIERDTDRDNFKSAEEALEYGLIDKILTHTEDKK
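Buffer: 100 mM Tris/HCl pH8, 100 mM KCl, 0.05% low protease BSA, 2.5% glycerol, 0.01% Tween-20. ClpP 10 microg/mL final; 20 min RT; delta FRET normalized to ADEP and DMSO controls.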
TRPML1 ag: activates the human TRPML1 channel; TRPML1-expressing cells, Ca2+ dye fluorescence, FDSS; host cell line not named in the record; reference of the full effect not given here; 410,000 compounds, 0.12% hits; Q9GZU1; activation, % (no concentration beside the values); in the data active = activation above about 50%; inconclusive = about 30% to 50%; inactive = below about 30%; note: 0% is about no effect; the text of the record puts the active cut at 80%
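Tetracycline-induced TRPML1-DL cells are seeded and incubated overnight before loading with a no-wash Ca2+ dye and quencher. Agonist activity is taken from the 110 s fluorescence read following compound pin-transfer on an FDSS, before EC80 54-4 challenge.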
TRPML1 blocker: human mucolipin-1 channel inhibition; Q9GZU1; TRPML1-inducible cells, Ca2+ dye fluorescence, FDSS; hits give low values; inhibition of EC80 agonist-evoked calcium signal; AID 624415; 390,000 compounds, 0.02% hits; activity change, negative = inhibition, % (no concentration beside the values); in the data active means activity change below about -50%; inconclusive means about -30% to -50%; inactive means above about -30%;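 note: stimulus is agonist 54-4 at its EC80 concentration; % is set by controls: 0 for no effect and ±100 for the full control effect; compound concentration not given in the record; the text of the record puts the active cut at -80%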
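TRPML1-DL cells, Tet-induced overnight (~16 h, 37 °C) at 1,500 cells/well, were loaded with Ca8 no-wash dye plus quencher for 45-90 min at room temperature. Compounds were pinned during FDSS kinetic reading; agonist 54-4 at EC80 (4 uM final) then added.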
TRPV1 PAM: potentiators of human vanilloid receptor 1 (TRPV1); potentiation, % at 8.33 µM; AID 540277; TRPV1-expressing cells, Fluo-8 calcium influx, capsaicin EC20 potentiation; host cell line not named in the record; control for the full effect not named in the record; 320,000 compounds, 0.02% hits; active means potentiation above 80%; inconclusive means 30% to 80%; inactive means below 30%; note: 0% is about no effect
Target sequence (Q8NER1 whole entry, looked up): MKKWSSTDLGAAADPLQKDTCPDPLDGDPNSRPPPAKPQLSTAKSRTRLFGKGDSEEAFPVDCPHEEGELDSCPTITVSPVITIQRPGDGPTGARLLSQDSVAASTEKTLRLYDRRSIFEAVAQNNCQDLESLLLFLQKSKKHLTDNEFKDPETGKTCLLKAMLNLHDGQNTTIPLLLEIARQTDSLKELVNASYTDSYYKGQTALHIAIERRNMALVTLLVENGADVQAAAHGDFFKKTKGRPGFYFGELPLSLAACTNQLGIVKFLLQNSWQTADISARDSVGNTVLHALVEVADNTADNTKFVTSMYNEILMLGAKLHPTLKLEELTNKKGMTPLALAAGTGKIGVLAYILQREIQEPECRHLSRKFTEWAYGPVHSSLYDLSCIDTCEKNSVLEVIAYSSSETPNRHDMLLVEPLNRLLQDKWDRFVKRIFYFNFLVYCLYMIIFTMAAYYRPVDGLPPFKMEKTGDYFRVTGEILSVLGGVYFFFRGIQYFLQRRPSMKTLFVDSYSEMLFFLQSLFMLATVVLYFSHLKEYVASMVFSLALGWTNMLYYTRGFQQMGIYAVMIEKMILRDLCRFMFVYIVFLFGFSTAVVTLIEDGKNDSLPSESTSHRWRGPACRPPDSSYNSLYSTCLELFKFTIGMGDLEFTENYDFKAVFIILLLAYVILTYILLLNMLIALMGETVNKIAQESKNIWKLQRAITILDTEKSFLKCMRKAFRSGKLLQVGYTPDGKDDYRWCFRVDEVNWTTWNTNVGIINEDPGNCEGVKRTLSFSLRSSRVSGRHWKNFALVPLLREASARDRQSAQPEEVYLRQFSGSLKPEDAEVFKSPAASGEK
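Cells expressing TRPV1 were dye-loaded with Fluo-8 and read kinetically: 10 s baseline, 3 min after compound (agonist portion), then 2 min after EC20 capsaicin (allosteric enhancer portion). Calcium-bound dye fluorescence at 480/520 nm.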
PINK1 modulator: changes PINK1 expression; PINK1 immunofluorescence, high-content cytometry, 24 h; Potency, µM (series often up to 76.6 µM), for the others: at the highest dose activation (PINK1 increase), actives largely listed as activators; 410,000 compounds, 0.2% hits; AID 624263; active = well fitted activation curve with a large enough effect; inconclusive = small, poorly fitted or top-dose-only effect; inactive = flat fitted curve, though single readings scatter; cell line not stated here;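 note: potency is the fitted concentration of half-maximal effect; % of control where 0% means no effect; nearly all actives have a fitted effect of over 65% in size; a mitochondrial uncoupler was the plate control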
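A stable cell line was treated with compounds at 5 concentrations for 24 hours, with CCCP as control. PINK1 levels and mitochondrial localization were measured by immunofluorescence with mitochondrial, cell and nuclear markers after fixation, read by laser-scanning cytometry.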
Menin MLL FP FL: inhibitors of human menin-MLL interaction, wild-type MLL peptide | Fluorescence polarization, fluorescein-MLL peptide displacement from menin | FP activity change, % at 61.4 µM | 290,000 tested, under 10 active; inconclusive = falling polarisation curve, or a change in total fluorescence; inactive = total fluorescence flat and polarisation flat or rising; no compound was filed as active; the % refers to the polarisation; negative = inhibition;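 note: % of control where 0% means no effect; inhibitors lower the polarisation; unlabelled MLL peptide was the positive control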
The depositor's hits bear a star; u = inconclusive; x = not tested or not shown; & = joins results of further samples; [ ] = another dose, or the depositor's remark.

SMILES | Sfp inh | ClpP mod | TRPML1 ag | TRPML1 blocker | TRPV1 PAM | PINK1 modulator | Menin MLL FP FL
NC(=S)Cc1nc(-c2ccccc2)cs1 | 56.2µM* | -12.8% | 3.2 | 8.5 | -3.3 | -1.6% | 5.5
O=C1Nc2ccccc2/C1=C/C(=O)c1cccs1 | 44.7µM* | 31.6µM* | 2.0 | 10.1 | -1.2 | -2.1% | 1.3
CCCCCn1c(SCC2CCCO2)nc2cc(C(=O)N3CCC(C(N)=O)CC3)ccc2c1=O (configuration not stated) | -4.7% | -7.6% | 0.3 | -9.3 | -10.7 | 3.0%[38.3 µM] | 4.9
COc1ccc2cc(C=NS(=O)(=O)c3ccc(C)cc3)n(C)c2c1 | x | -2.5% | -0.1 | 1.5 | 8.7 | 1.0% | x
COc1ccc(C(=O)NCc2nnc(SCC(=O)Nc3ccc4c(c3)OCO4)o2)cc1 | 9.4% | 0.3% | 1.7 | 0.9 | 14.3 | 0.7% | 1.4
COc1ccc(S(=O)(=O)N2C[C@H]3CON(C)[C@H]3C[C@H]2c2cccc(Br)c2)cc1 | x | -0.8% | 1.1 | 6.4 | x | 0.5% | x
COc1cccc(-c2ccc3ncnc(NCCNC(C)=O)c3c2)c1 | 20.2% | x | x | x | x | -1.1% | -0.4
CCCN(C)C[C@H]1OCc2cnnn2CCCC(=O)N([C@H](C)CO)C[C@@H]1C | x | -3.0% | 0.6 | -7.6 | x | 2.1% | x
CCC(C)Sc1ccc([C@H]2N[C@@](Cc3ccccc3)(C(=O)OC)[C@H]3C(=O)N(CC)C(=O)[C@@H]23)cc1 (some centres not stated) | x | -12.9% | 1.2 | 6.0 | -10.0 | 3.1% | x
CN(CC(=O)Nc1ccc(F)cc1)C(=O)C1CCCC1 | x | 0.0% | 0.3 | 14.9 | 8.1 | 2.4% | x
O=C(COc1cccc2ccccc12)NNC(=O)CSCCO | 6.6% | 1.5% | 1.4 | -6.5 | 13.0 | 3.3% | 4.0
COc1ccc([C@@H]2CC(=O)[C@@H]3CN(S(=O)(=O)c4ccc(C)cc4)[C@H](c4ccccc4)C[C@@H]3N2S(=O)(=O)c2ccccc2)cc1 | x | -1.9% | 0.6 | x | x | 1.7% | x
CSc1sccc1/C=N/NC(=O)c1ccncc1 | 17.6% | 55.3% | 0.4 | 2.2 | 25.7 | 6.0% | 0.0
O=[N+]([O-])c1ccccc1/C=N/Nc1nccnc1Cl | -9.6% | -0.6% | 2.9 | 1.0 | -8.9 | 4.5%[38.3 µM] | 2.0
COc1cc(/C=C/C(=O)OCC(=O)Nc2cc(C)c(C)cc2[N+](=O)[O-])ccc1O | -0.2% | -0.2% | -0.4 | 16.9 | u | 2.6% | 13.6
Cc1ccc(N(CC(=O)NCc2ccccc2)C(=O)CCC(=O)Nc2ccccn2)c(C)c1 | 7.3% | x | -0.1 | -1.6 | u | -0.7% | 0.8
CC1(C)NC(=O)N(Cc2cc(=O)n3ccsc3n2)C1=O | 11.9% | x | -0.2 | -12.0 | 20.7 | -0.3% | 3.2
O=C(COc1ccc2ccc(=O)oc2c1)NC1CCN(Cc2ccccc2)CC1 | 4.0% | 3.9% | 0.0 | -7.0 | -1.7 | -0.9% | x
CCc1ccc(Nc2nc(N)nc(CSc3nc4ccccc4s3)n2)cc1 | 19.5% | -4.8%&-1.6% | 0.6&1.2 | -2.9&-0.1 | 2.0 | 10.1%&0.8% | 0.8
CCOc1c(Cl)cc(CNCC(O)c2ccccc2)cc1OC (configuration not stated) | 2.6% | -1.4% | 0.4 | 8.4 | -2.7 | 1.1% | 0.3
Cc1ccc(C(=O)/C=C/N(C)C)cn1 | 5.1% | -1.4% | -0.4 | 68.5 | 8.2 | 0.2% | 2.9
COc1ccc(-c2csc3ncnc(N4CCN(Cc5ccccc5)CC4)c23)cc1 | -14.7% | -1.9% | -0.7 | 4.7 | -23.3 | 5.3% | 3.2
Cn1cnnc1Sc1nc2c(c(=O)n(C)c(=O)n2C)n1Cc1ccccc1Cl | 11.3% | 0.2% | -0.6 | -1.0 | 21.4 | 0.0% | -2.6
CCOC(=O)c1cccc(NC(=O)c2cc3cc4ccc(C)cc4nc3o2)c1 | x | 3.0% | -1.0 | -11.1 | x | 0.8% | x
O=C1C2C3C=CC(CNS(=O)(=O)c4ccccc4[N+](=O)[O-])(O3)C2C(=O)N1c1ccccc1 (configuration not stated) | 28.2µM* | x | 0.3 | 3.7 | -1.8 | -1.9% | 4.3

The listing continues:
SMILES | Sfp inh | ClpP mod | TRPML1 ag | TRPML1 blocker | TRPV1 PAM | PINK1 modulator | Menin MLL FP FL
N#C/C(=C\c1cccnc1)C(=O)Nc1cccc2ccccc12 | u | -20.5% | 0.0 | -20.1 | 2.5 | -0.6% | 6.0
CCOc1ccccc1NC(=S)N1CCC(NC(=O)NC23CC4CC(CC(C4)C2)C3)CC1 | 0.5% | -1.2% | 0.8 | -6.9 | 3.8 | x | 1.2
O=S(=O)(NC1CCCCC1Nc1ccc(Cl)cc1)c1ccccc1 (configuration not stated) | 26.5% | -1.0% | 1.0 | -3.2 | -6.1 | 1.2% | 3.5
CN(C)c1cc(-c2cccc(C(F)(F)F)c2)oc(=O)c1Cl | x | -3.3% | -0.1 | -8.8 | x | 1.2% | x
N#Cc1nc(COc2cccc(Cl)c2)oc1NCCN1CCOCC1 | 16.9% | -0.4% | -0.4 | -16.7 | 10.2 | 0.1% | 1.2
O=C(CCC1CCCC1)Nc1ccc(Br)cn1 | 8.7% | 1.5% | -0.8 | 0.7 | -10.0 | 0.0% | -0.2
CCOc1ccc(C(=O)NCC(=O)OCc2c(F)cccc2Cl)cc1 | 5.4% | 28.2µM* | -0.1 | -8.2 | -14.5 | 0.0% | 8.4
Cc1ccccc1C(=O)Nc1ccnn1C1CCN(Cc2c(C)n(C)c3ccccc23)CC1 | 11.4% | -1.1% | -0.4 | 1.2 | 13.4 | 7.0% | -7.7
O=C(O)c1ccc(CSCc2ccco2)cc1 | -13.9% | 0.9% | -0.5 | 12.8 | -12.9 | -0.2% | 5.2
CC(=O)OC(=C(OC(C)=O)c1ccccc1)c1ccccc1 | x | x | 2.0 | 13.5 | x | 1.3% | x
CN1CCN(c2ccccc2NC(=O)c2ccc(-c3ccc(Cl)cc3Cl)o2)CC1 | 56.2µM* | u | 4.1 | 6.2 | -8.2 | 14.1%[38.3 µM] | 0.7
CC(C1CC1)N(C(=O)c1ccccc1O)c1ccccc1 (configuration not stated) | u | -0.2% | -0.5 | 10.5 | -13.6 | -2.3% | 0.6
Cc1ccc(CN2CCN(CC(=O)NCc3ccc(Cl)cc3)C2=O)cc1 | 1.3% | -1.7% | 0.4 | 13.4 | -16.8 | 12.8% | 0.8
COc1cc(C2/C(=C(\O)c3ccc4c(c3)CC(C)O4)C(=O)C(=O)N2CC2CCCO2)cc(OC)c1OC (configuration not stated) | 1.6% | -0.8% | -0.2 | 6.0 | 0.9 | 0.3% | -0.3
Cc1ccsc1C=Nc1c(C)n(C)n(-c2ccccc2)c1=O | -15.7% | -1.4% | 1.4 | 14.7 | -2.5 | 0.3%[38.3 µM] | 2.3
Cc1ccc(CS(=O)(=O)Cc2ccc(C(=O)NC3CCCCCC3)o2)cc1 | 4.8% | 1.9% | 0.5 | 5.7 | -4.2 | -0.2% | -4.9
NS(=O)(=O)Oc1ccccc1 | 11.8% | -0.1% | -0.5 | -2.2 | 11.6 | 0.2% | -1.0
CC1CCCC(NC(=O)COC(=O)CCC2CCCC2)C1C (configuration not stated) | 9.5% | -3.3% | 0.1 | 14.0 | -1.4 | 0.5% | 2.0
CCOC(=O)c1c(N2C(=O)Nc3ccccc3N2O)n[nH]c1-c1cccc(OC)c1 | -14.6% | -1.4% | 2.0 | 21.5 | -23.4 | 0.7% | 3.0
CN1CCN(c2ccc(C(F)(F)F)cc2NC(=O)c2ccco2)CC1 | 1.4% | -1.5% | 0.0 | 6.7 | -4.3 | 0.1% | 1.1
CN(c1ccccc1C(=O)Nc1cccc([N+](=O)[O-])c1)S(C)(=O)=O | 0.6% | 1.7% | -0.1 | -1.5 | -2.7 | 3.1% | -1.1
O=C(NC1CCCC1)c1cc(Nc2cccc(C(F)(F)F)c2)nc2ccccc12 | x | 4.4% | 1.4 | -5.4 | x | 9.5% | x
CCOP(C)(=O)C1(C(=O)OCc2ccccc2)CC1 (configuration not stated) | 7.3% | -3.1% | 0.4 | -19.2 | -12.8 | -1.8% | 2.7
c1csc(CNc2ccc3c(c2)OCCO3)c1 | -5.6% | -15.8% | -0.1 | -6.2 | 6.4 | 14.3% | 4.1
CN(C)C(CNC(=O)CCCc1c[nH]c2ccccc12)c1ccco1 (configuration not stated) | -1.0% | -11.8% | 0.1 | 15.1 | -3.4 | -3.1% | 5.5

Additional entries:
SMILES | Sfp inh | ClpP mod | TRPML1 ag | TRPML1 blocker | TRPV1 PAM | PINK1 modulator | Menin MLL FP FL
CCOC(=O)c1c(/N=C/c2ccc(OC)cc2O)sc2c1CCN(C)C2 | -21.7% | 3.8% | -0.1 | 11.1 | -2.8 | -0.1% | -1.3
Cc1ccc(NC(=S)Nc2ccc(F)cc2)c(C)c1 | 2.0% | x | 0.2 | -3.7 | 6.9 | -0.1% | -6.0
COc1cccc(CN2CCN(C(=O)[C@H]3O[C@@H](n4cnc5c(N)ncnc54)[C@H](O)[C@@H]3O)CC2=O)c1 | x | -3.4% | -0.1 | -15.1 | x | 4.4% | x
CCOC(=O)CSc1nnc(CNC(=O)c2cccs2)n1-c1cc(OC)ccc1OC | 19.3% | -0.3% | -0.2 | -11.2 | u | -1.9%[38.3 µM] | -1.2
COc1ccc(NC(=O)CN2CCCCC2)cc1S(=O)(=O)N1CCCCC1 | x | -1.6% | -0.2 | -7.1 | x | 0.2% | x
COc1ccc(-c2cc(=O)oc3c(C)c(OC(C)C(=O)Nc4ccc(CN5CCOCC5)cc4)ccc23)cc1 (configuration not stated) | -2.6% | u | 0.2 | -4.5 | -4.0 | -0.3% | x
N#CCCn1nc(-c2ccc(Br)cc2)cc1Nc1ccccc1NC(=O)C(F)(F)F | 1.5% | -4.2% | 2.0 | 7.0 | -5.2 | u | 5.8
COc1ccc(NC(=O)CSc2nnc(-c3ccncc3)o2)c(OC)c1 | x | x | 0.2 | 10.7 | -3.8 | 0.6% | x
CC(C)(C)NC(=S)NCc1ccco1 | 3.55µM* | -6.6% | 0.0 | -22.5 | 6.0 | 0.2% | u

Source: PubChem BioAssay (National Center for Advancing Translational Sciences (NCATS))
